Screens (PubChem)
MLL AF4-AF9 inh: MLL-AF4/AF9 protein interaction inhibition; P42568; AlphaScreen, biotin-AF4 peptide binding to FLAG-AF9; inhibition, % at 10 µM; 0.47% of 350,000 active; AID 651704;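 active = every replicate reaching a set inhibition limit, whatever the replicate mean, cut at about 25% in these data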;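 note: 0% = plate neutral control median and 100% = total signal loss; the record names both 10 and 1 µM as test concentration; the first replicate is given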
Target sequence (P42568 whole entry, looked up): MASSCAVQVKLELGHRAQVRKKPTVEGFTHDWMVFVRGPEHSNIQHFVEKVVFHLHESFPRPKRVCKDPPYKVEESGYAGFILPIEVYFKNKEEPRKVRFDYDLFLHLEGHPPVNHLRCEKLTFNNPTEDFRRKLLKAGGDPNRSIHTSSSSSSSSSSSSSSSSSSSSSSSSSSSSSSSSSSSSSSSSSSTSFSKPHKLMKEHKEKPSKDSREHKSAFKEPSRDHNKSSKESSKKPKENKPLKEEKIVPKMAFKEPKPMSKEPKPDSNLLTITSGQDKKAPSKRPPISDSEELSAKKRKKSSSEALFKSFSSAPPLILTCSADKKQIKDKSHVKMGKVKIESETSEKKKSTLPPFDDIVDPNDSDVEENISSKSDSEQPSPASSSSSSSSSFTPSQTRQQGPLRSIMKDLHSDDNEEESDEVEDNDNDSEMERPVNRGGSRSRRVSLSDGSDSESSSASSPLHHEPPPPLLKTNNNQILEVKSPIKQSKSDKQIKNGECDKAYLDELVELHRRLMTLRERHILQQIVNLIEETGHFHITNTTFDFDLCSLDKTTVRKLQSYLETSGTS
Ecoli rRNA inh: selective bacterial rRNA inhibition in E. coli. 1.6% of 350,000 active. E. coli WT GFP vs humanized-ribosome RFP mutants, fluorescence, 24 h; stronger effect = lower value; DMSO median 0, no signal -100. AID 720706. GFP signal change (wild-type ribosome), % (no concentration beside the values);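 active = significant combined selectivity score with lowered wild-type GFP, culture density cut under 30%, mutant RFP and density less affected; inactive = any of these conditions unmet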; note: one replicate is shown; some compounds called inactive have numbers as strong as hits
Ecoli rRNA inh OD600: also measured in Ecoli rRNA inh; calls as there; OD600 change, %; measured here: OD600 growth;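 optical density of the mix in the first replicate; 0 = DMSO median and -100 = no signal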
Ecoli rRNA inh RFP: second read-out of Ecoli rRNA inh, no call of its own (marks repeat the call); RFP signal change, %; measured here: RFP humanized mutant strains;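 first replicate; 0 = DMSO median and -100 = no signal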
The depositor's hits bear a star. The list is partial, so the mix of outcomes need not match the whole.

SMILES	MLL AF4-AF9 inh	Ecoli rRNA inh	Ecoli rRNA inh OD600	Ecoli rRNA inh RFP
O=C(C[C@@H]1CC[C@@H](NC(=O)C2CCOCC2)[C@@H](CO)O1)Nc1ccccc1	-2.5	3	7	-0.7
COc1ccc(CN(C)C[C@@H]2Oc3c(NS(=O)(=O)c4ccc(Cl)cc4)cccc3C(=O)N([C@H](C)CO)C[C@@H]2C)cc1	0.6	-2	-1	-0.3
C[C@@H]1CN([C@@H](C)CO)C(=O)c2cc(N(C)C)ccc2O[C@@H](C)CCCCO[C@@H]1CN(C)C	11	5	3	0.4
CCNC(=O)[C@H]1[C@H](CO)[C@H]2Cn3c(ccc(-c4ccc(OC)cc4)c3=O)[C@@H]1N2CC	-1.5	-1	0	-0.8
C[C@@H]1CCCCO[C@H](CN(C)C(=O)c2ccccc2)[C@@H](C)CN([C@H](C)CO)C(=O)c2cc(NS(=O)(=O)c3ccc(Cl)cc3)ccc2O1	-2.2	3	-5	1.5
COc1cccc(-c2ccc([C@H]3[C@@H](CO)N4CCCCN(S(=O)(=O)c5cn(C)cn5)C[C@H]34)cc2)c1	-7.1	-3	-11	0.4
COc1ccc(CN(C)C[C@@H]2Oc3c(NC(=O)C4CCCCC4)cccc3C(=O)N([C@@H](C)CO)C[C@H]2C)cc1	-0.2	-3	9	-2.0
COc1ccc(-c2nc3cc(C)c(Br)c(C)n3c2Cc2cccc(F)c2)cc1OC	1.5	25	13	35
CCC(=O)N1[C@H](CO)[C@H](c2ccc(C3=CCCC3)cc2)C12CN(C(=O)COC)C2	-7.3	1	18	-1.1
O=C(C[C@@H]1CC[C@H]2[C@@H](COC[C@H](O)CN2Cc2ccccc2F)O1)NCc1ccccc1F	0.1	-2	3	-2.2
C[C@H](CO)N1C[C@H](C)[C@H](CN(C)S(=O)(=O)c2cccs2)Oc2ncc(C#Cc3ccc(F)cc3)cc2C1=O	0.7	1	0	1.6
Cc1noc(C)c1S(=O)(=O)Nc1ccc2c(c1)C(=O)N([C@H](C)CO)C[C@@H](C)[C@@H](CN(C)S(=O)(=O)c1cccs1)O2	-1.2	-3	-8	0.0
C[C@H]1CN([C@@H](C)CO)C(=O)Cc2cc(NC(=O)Cn3cnnn3)ccc2O[C@@H]1CN(C)Cc1ccc(-c2ccccc2)cc1	1.5	-5	-29	9.9
COCC(=O)N1C[C@@H](C)[C@@H](OC)CN(C)C(=O)c2ccc(NC(=O)c3ccc(F)cc3)cc2OC[C@@H]1C	-0.7	3	3	-0.7
O=C([C@H]1[C@H](CO)[C@H]2Cn3c(ccc(-c4ccccc4F)c3=O)[C@@H]1N2C(=O)C1CC1)N1CCOCC1	-0.1	0	4	-0.2

The closing 2 entries of the part before come first, to join the parts:
SMILES	MLL AF4-AF9 inh	Ecoli rRNA inh	Ecoli rRNA inh OD600	Ecoli rRNA inh RFP
COCC(=O)N1C[C@@H](C)[C@@H](OC)CN(C)C(=O)c2ccc(NC(=O)c3ccc(F)cc3)cc2OC[C@@H]1C	-0.7	3	3	-0.7
O=C([C@H]1[C@H](CO)[C@H]2Cn3c(ccc(-c4ccccc4F)c3=O)[C@@H]1N2C(=O)C1CC1)N1CCOCC1	-0.1	0	4	-0.2
Cc1cccc(C)c1-n1nnnc1-c1nc2cc(Br)ccc2[nH]c1=O	-9.6	4	5	-0.3
CNC(=O)C[C@H]1CC[C@H]2[C@@H](COc3ccc(NC(=O)Nc4cccc(Cl)c4)cc3C(=O)N2C)O1	-1.8	-1	1	-4.0
O=C(C[C@@H]1CC[C@H]2[C@@H](COC[C@H](O)CN2Cc2cc(F)ccc2F)O1)N[C@@H]1CCN(Cc2ccccc2)C1	2.4	4	5	-1.2
CC1(C(=O)N2Cc3ccccc3C2)CCN1C(=O)C1(c2ccc(Cl)cc2)CC1 (configuration not stated)	0.2	-4	-7	-0.2
C[C@@H]1CN([C@H](C)CO)C(=O)Cc2cc(NC(=O)Nc3ccc(C(F)(F)F)cc3)ccc2O[C@@H]1CN(C)S(=O)(=O)c1ccccc1	-2.7	3	0	-1.2
CC(C)NC(=O)N(C)C[C@@H]1OCCCC[C@@H](C)Oc2ccc(NS(=O)(=O)c3ccccc3)cc2C(=O)N([C@H](C)CO)C[C@@H]1C	-2.0	3	16	-0.5
CC(C)CC#Cc1ccc([C@@H]2[C@H](CO)N3CCCCN(S(=O)(=O)Cc4ccccc4)C[C@@H]23)cc1	14	-48	-47	-4.5
C[C@H](CO)N1C[C@H](C)[C@H](CN(C)C(=O)c2cccc(F)c2)Oc2cc(-c3cccnc3)ccc2S1(=O)=O	5.7	1	7	-0.8
C[C@@H]1CCCCO[C@H](CN(C)C(=O)Nc2ccccc2)[C@H](C)CN([C@H](C)CO)C(=O)c2cc(N(C)C)ccc2O1	6.6	-2	-4	0.6
Cc1ccc(S(=O)(=O)N[C@H]2CC[C@H](CCNC(=O)C3CC3)O[C@H]2CO)cc1	-3.7	0	-4	-2.8
COc1cccc(C#Cc2ccc([C@H]3[C@H](C#N)N(C(=O)C4CC4)[C@H]3CO)cc2)c1	-3.7	2	4	3.4
C[C@@H]1CN([C@H](C)CO)C(=O)c2cccc(NC(=O)c3nc4ccccc4s3)c2O[C@@H]1CN(C)Cc1ccc(Oc2ccccc2)cc1	-10	6	-2	-1.0
CCc1nc2c(OCC3CCCCC3)cccn2c1N(C)C(=O)c1ccc(OC)cc1	9.0	-9	-13	6.3
CCCN1[C@@H]2Cn3c(ccc(-c4ccccc4)c3=O)[C@H]1[C@@H](C(=O)N1CCCCC1)[C@@H]2CO	0.7	1	-2	-1.4
COc1ccc(NC(=O)C2(C)CCN2C(=O)CC2CCCC2)cc1OC (configuration not stated)	1.8	0	0	2.2
Cc1cc(C)c(C(O)c2ncc(-c3cccc4ccccc34)[nH]2)c(C)c1 (configuration not stated)	4.1	-40	-55	-10
CC=Cc1ccc2n(c1=O)C[C@H]1[C@H](CO)[C@@H](C(=O)N[C@H](C)c3ccccc3)[C@@H]2N1Cc1cncnc1 (mixture of isomers)	2.3	-1	1	0.0
CCCc1cn(CC[C@@H]2CC[C@@H](NC(=O)CCN3CCCCC3)[C@H](CO)O2)nn1	-0.2	1	2	-0.6
COc1cccc(CN2CC3(CCN(C)CC3)c3c([nH]c4cc(OC)ccc34)[C@@H]2CO)c1	2.6	5	-5	1.2
O=C(Nc1cc(F)ccc1F)N1CC(=O)N2[C@H](CO)[C@@H](c3ccc(C#CC4CCCC4)cc3)[C@@H]2C1	5.8	-6	-13	2.7
CC(C)NC(=O)N(C)C[C@@H]1OCCCC[C@@H](C)Oc2ccc(N(C)C)cc2C(=O)N([C@@H](C)CO)C[C@@H]1C	2.7	2	-3	-0.6
COCC(=O)Nc1ccc2c(c1)[C@@H]1C[C@H](CC(=O)NCc3cccnc3)O[C@H](CO)[C@@H]1O2	-1.3	1	8	0.4
Cc1ccccc1S(=O)(=O)NCC[C@@H]1CC[C@@H](NC(=O)C2CCOCC2)[C@H](CO)O1	-3.7	3	2	-2.1
C[C@H](CO)N1C[C@H](C)[C@@H](CN(C)Cc2ccccn2)Oc2ncc(C3=CCCCC3)cc2C1=O	-0.4	2	11	1.6
COC(=O)[C@@H]1[C@@H](CO)[C@@H]2Cn3c(ccc(-c4ccccc4OC)c3=O)[C@@H]2N1CC1CCOCC1	-0.2	-2	7	-2.3
CCC(=O)N1C[C@H](C)[C@H](OC)CN(C)C(=O)c2ccc(NC(=O)c3ccccc3)cc2OC[C@@H]1C	-1.2	-1	2	-0.2
CC(C)NC(=O)N(C)C[C@H]1OCCCC[C@H](C)Oc2ccc(NC(=O)Cc3ccccc3)cc2C(=O)N([C@@H](C)CO)C[C@@H]1C	-1.9	-2	-3	-2.0
CCN1[C@@H]2c3ccc(-c4ccncc4)c(=O)n3C[C@@H]2[C@@H](CO)[C@@H]1C(=O)Nc1ccccc1	1.4	-2	-2	-0.6
CC(C)c1cn(CC[C@@H]2CC[C@@H](NC(=O)C3CCOCC3)[C@H](CO)O2)nn1	-3.2	2	7	-1.8
Cc1noc(C)c1S(=O)(=O)Nc1ccc2c(c1)C(=O)N([C@H](C)CO)C[C@@H](C)[C@H](CN(C)C(=O)Nc1ccc(C(F)(F)F)cc1)OCCCC[C@@H](C)O2	-1.4	2	-3	-1.4

A second format for six compounds above.
Sequence of screens – MLL AF4-AF9 inh	Ecoli rRNA inh	Ecoli rRNA inh OD600	Ecoli rRNA inh RFP
> CC=Cc1ccc2n(c1=O)C[C@H]1[C@H](CO)[C@@H](C(=O)N[C@H](C)c3ccccc3)[C@@H]2N1Cc1cncnc1 (mixture of isomers)
 : 2.3	-1	1	0.0
> CCCc1cn(CC[C@@H]2CC[C@@H](NC(=O)CCN3CCCCC3)[C@H](CO)O2)nn1
 : -0.2	1	2	-0.6
> COc1cccc(CN2CC3(CCN(C)CC3)c3c([nH]c4cc(OC)ccc34)[C@@H]2CO)c1
 : 2.6	5	-5	1.2
> O=C(Nc1cc(F)ccc1F)N1CC(=O)N2[C@H](CO)[C@@H](c3ccc(C#CC4CCCC4)cc3)[C@@H]2C1
 : 5.8	-6	-13	2.7
> CC(C)NC(=O)N(C)C[C@@H]1OCCCC[C@@H](C)Oc2ccc(N(C)C)cc2C(=O)N([C@@H](C)CO)C[C@@H]1C
 : 2.7	2	-3	-0.6
> COCC(=O)Nc1ccc2c(c1)[C@@H]1C[C@H](CC(=O)NCc3cccnc3)O[C@H](CO)[C@@H]1O2
 : -1.3	1	8	0.4

(cont.)
SMILES	MLL AF4-AF9 inh	Ecoli rRNA inh	Ecoli rRNA inh OD600	Ecoli rRNA inh RFP
COc1ccc2c3c(n(C)c2c1)[C@@H](CO)N(Cc1ccccc1OC)CC31CN(CC2CCOCC2)C1	10.0	2	2	-0.2
Cc1ccc(S(=O)(=O)Nc2ccc3c(c2)C(=O)N([C@@H](C)CO)C[C@H](C)[C@H](CN(C)C)O3)cc1	-3.8	4	-2	-1.0
O=C(C[C@H]1C=C[C@H](NS(=O)(=O)c2ccccc2)[C@H](CO)O1)NCc1ccncn1	-2.0	-1	5	-1.2
COc1ccc(NC(=O)Nc2ccc3c(c2)OC[C@@H](C)NC[C@@H](C)[C@@H](OC)CN(C)C3=O)cc1	2.7	0	-4	3.6
C[C@H]1CN([C@@H](C)CO)C(=O)c2cc(/C=C/c3ccccc3)cnc2O[C@@H]1CN(C)S(=O)(=O)c1ccccc1F	4.0	-9	4	0.2
C[C@@H]1CCCCO[C@H](CN(C)S(=O)(=O)c2ccccc2)[C@@H](C)CN([C@H](C)CO)C(=O)c2cc(NS(=O)(=O)c3cccs3)ccc2O1	-2.1	1	4	-1.4
O=C(NCC[C@H]1CC[C@@H](NC(=O)C2CC2)[C@@H](CO)O1)Nc1ccc(Cl)cc1	9.5	-12	-8	0.6
COc1ccccc1S(=O)(=O)N[C@H]1CC[C@H](CCNC(=O)C2CCC2)O[C@@H]1CO	-16	-1	0	-2.1
COc1ccc(C#Cc2ccc([C@@H]3[C@H]4CN(C(=O)c5ccncc5)CCCCN4[C@H]3CO)cc2)cc1	-2.6	-34	-68	1.7
CC(C)NC(=O)Nc1ccc2c(c1)C(=O)N([C@@H](C)CO)C[C@@H](C)[C@@H](CN(C)S(=O)(=O)c1cn(C)cn1)OCCCC[C@@H](C)O2	-1.2	6	10	0.7
C[C@@H]1CN([C@H](C)CO)C(=O)c2cc(C3=CCCC3)cnc2O[C@@H]1CN(C)C(=O)C1CCCCC1	1.3	1	9	-2.2
CCCCCCCCN1C(=O)[C@H](CC(=O)NCC2CCCCC2)C[C@@]2(C(=O)OC)CCCCC=C12	0.7	13	12	0.9
COc1ccc(-c2ccc(C(=O)NCC3CCOCC3)c3occc23)c(C)c1	3.0	-53	-77	-18
O=C(O)C[C@H]1C[C@@H]2c3cc(NS(=O)(=O)c4ccc(F)cc4)ccc3O[C@@H]2[C@@H](CO)O1	-4.0	0	7	2.5
C[C@@H]1CCCCO[C@@H](CN(C)Cc2ccc(Cl)c(Cl)c2)[C@H](C)CN([C@@H](C)CO)C(=O)c2cc(NC(=O)Nc3ccc(C(F)(F)F)cc3)ccc2O1	-1.1	-1	7	0.4
O=C(NCC[C@H]1CC[C@H](NS(=O)(=O)c2ccccc2)[C@H](CO)O1)c1cc(Cl)cc(Cl)c1	0.2	-5	-26	22
COc1ccc(CN(C)C[C@H]2OCCCC[C@H](C)Oc3ccc(NC(=O)c4ccccc4)cc3C(=O)N([C@H](C)CO)C[C@H]2C)cc1	9.2	-1	1	3.6
CCCNC(=O)C[C@@H]1C[C@@H]2c3cc(NC(=O)COC)ccc3O[C@@H]2[C@@H](CO)O1	0.8	2	11	0.7
COCC(=O)N(C)C[C@H]1Oc2ncc(-c3ccc(C#N)cc3)cc2C(=O)N([C@@H](C)CO)C[C@@H]1C	-0.7	5	21	-0.8
COc1ccc(-c2ccc([C@H]3[C@H]4CNCC(=O)N4[C@H]3CO)cc2)cc1	-5.7	3	10	0.5
CCCC#Cc1ccc([C@H]2[C@@H](CO)N3CCCCN(S(C)(=O)=O)C[C@@H]23)cc1	2.7	1	-5	0.3
O=C(C[C@H]1CC[C@@H](NC(=O)C2CCC2)[C@@H](CO)O1)NCc1ccncc1	0.2	2	0	1.8
C[C@@H]1CN([C@H](C)CO)C(=O)Cc2cc(NC(=O)C3CC3)ccc2O[C@H]1CN(C)Cc1ccc(Cl)c(Cl)c1	-1.0	-5	-39	8.9
CCCCn1c(N)c(N(CC(C)C)C(=O)c2cccc(S(=O)(=O)N(CC)c3ccccc3)c2)c(=O)[nH]c1=O	-1.7	9	18	-0.9
COc1ccc(S(=O)(=O)N(C)C[C@@H]2Oc3ccc(NS(=O)(=O)c4ccc(F)cc4)cc3C(=O)N([C@H](C)CO)C[C@@H]2C)cc1	2.0	-2	-8	5.4
C[C@H](NC(=O)C[C@H]1CC[C@H](NC(=O)C2CC2)[C@H](CO)O1)c1ccccc1	0.7	-5	-5	0.4
